# gsp antagonist – gsp mutant antagonism; gsp-mutant cells, cAMP HTRF, 30 min; control for the full effect not named in the record; AID 624288; hit rate 0.4% among 340,000; Potency, µM (series often up to 76.9 µM), for the others: top-dose activity change, negative = inhibition, hits mostly inhibitors; active = falling curve of any shape with a large fitted effect; inconclusive = falling curve, mostly with a smaller effect; inactive = flat or rising curve; cell line not stated here;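 note: intracellular cAMP measured with PDE inhibitor Ro 20-1724 present during compound exposure; potency is the fitted concentration of half-maximal effect; % is set by controls: 0 for no effect and ±100 for the full control effect; nearly all actives have a fitted effect of over 65% in size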
#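 HTRF cAMP measurement after 30 min RT detection following 30 min, 37C compound treatment alongside […] (added as 300 uM solution) in G418-selected cells seeded at 2000/well and grown 16–24 h.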
# ClpP mod – qHTS Assay for Activators of ClpP. Potency, µM (highest dose often 57.5 µM), for the others: at the top dose activity change, negative = active. hit rate 1.9% among 340,000. purified B. subtilis ClpP, FRET peptide cleavage, 20 min. ATP-dependent Clp protease proteolytic subunit (Bacillus subtilis (strain 168)), P80244; active = well fitted falling curve with a large enough effect; inconclusive = small, poorly fitted or top-dose-only effect; inactive = no such curve, though single readings can be large or run the other way; note: potency is the fitted concentration of half-maximal effect; the source files actives as falling curves though it sought activators and does not explain the sign; nearly all actives have a fitted effect of over 65% in size; many hits overshoot -100%
# Target sequence (P80244 whole entry, looked up): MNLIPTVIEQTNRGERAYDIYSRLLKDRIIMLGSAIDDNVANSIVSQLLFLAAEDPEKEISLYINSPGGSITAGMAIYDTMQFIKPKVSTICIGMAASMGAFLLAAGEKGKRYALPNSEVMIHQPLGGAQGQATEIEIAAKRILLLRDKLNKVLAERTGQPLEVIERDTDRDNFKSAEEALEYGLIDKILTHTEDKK
#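 Buffer: 100 mM Tris/HCl pH8, 100 mM KCl, 0.05% low protease BSA, 2.5% glycerol, 0.01% Tween-20. ClpP 10 microg/mL final; 20 min RT; delta FRET normalized to ADEP and DMSO controls.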
# TRPV1 potentiator – enhances activation of the human vanilloid receptor TRPV1; Q8NER1; TRPV1-expressing cells, Fluo-8 calcium influx, capsaicin EC20 potentiation; host cell line not named in the record; control for the full effect not named in the record; potentiation, % at 8.33 µM; hit rate 0.02% among 320,000; AID 540277; active means potentiation above 80%; inconclusive means 30% to 80%; inactive means below 30%; note: 0% is about no effect
# Target sequence (Q8NER1 whole entry, looked up): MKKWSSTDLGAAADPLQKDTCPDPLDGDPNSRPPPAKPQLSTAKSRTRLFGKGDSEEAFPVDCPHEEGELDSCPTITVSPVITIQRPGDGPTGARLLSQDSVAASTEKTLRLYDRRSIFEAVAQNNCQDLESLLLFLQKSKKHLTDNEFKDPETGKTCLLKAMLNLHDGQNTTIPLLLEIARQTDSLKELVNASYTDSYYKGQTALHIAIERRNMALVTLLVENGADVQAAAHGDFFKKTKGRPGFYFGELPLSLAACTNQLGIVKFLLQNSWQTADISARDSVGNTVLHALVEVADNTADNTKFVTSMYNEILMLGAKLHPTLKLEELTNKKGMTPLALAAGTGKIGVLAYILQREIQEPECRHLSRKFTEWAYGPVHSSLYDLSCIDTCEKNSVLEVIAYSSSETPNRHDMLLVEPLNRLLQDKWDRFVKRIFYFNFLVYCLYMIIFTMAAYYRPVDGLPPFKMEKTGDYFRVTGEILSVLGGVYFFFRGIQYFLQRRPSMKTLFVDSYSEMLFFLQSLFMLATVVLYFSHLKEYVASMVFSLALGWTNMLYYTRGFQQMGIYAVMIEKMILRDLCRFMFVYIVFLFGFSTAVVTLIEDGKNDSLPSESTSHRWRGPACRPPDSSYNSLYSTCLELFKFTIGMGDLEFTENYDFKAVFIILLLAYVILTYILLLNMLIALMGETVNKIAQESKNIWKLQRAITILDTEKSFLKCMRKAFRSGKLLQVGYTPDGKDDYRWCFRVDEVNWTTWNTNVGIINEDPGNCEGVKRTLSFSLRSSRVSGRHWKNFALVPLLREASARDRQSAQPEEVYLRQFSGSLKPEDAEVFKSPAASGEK
#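 Fluo-8 calcium influx in TRPV1-expressing cells, kinetic read (ex 480/em 520 nm). Compound added and read 3 min for agonist activity, followed by capsaicin at EC20 final and 2 min further read for enhancement.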
# Menin MLL FP FL – displaces fluorescein MLL peptide from human menin. 290,000 tested, under 10 active. Fluorescence polarization, fluorescein-MLL peptide displacement from menin. FP activity change, % at 61.4 µM; inconclusive = falling polarisation curve, or a change in total fluorescence; inactive = total fluorescence flat and polarisation flat or rising; no compound was filed as active; the % refers to the polarisation; negative = inhibition;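 note: % of control where 0% means no effect; inhibitors lower the polarisation; unlabelled MLL peptide was the positive control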
# Sfp PPTase inh – Sfp phosphopantetheinyl transferase inhibition; Q9F4F7; Biochemical Sfp PPTase activity, qHTS; Potency, µM, without a hit: max response, negative = inhibition, usual class: inhibitors; hit rate 3.5% among 310,000; active = well fitted inhibition curve with a large enough effect; inconclusive = small, poorly fitted or top-dose-only effect, or another doubt; inactive = no such curve, though single readings can be large or run the other way;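 note: the enzyme is Sfp with the accession as filed and its product quenches rhodamine fluorescence; potency is the fitted concentration of half-maximal effect; 0% = enzyme reaction without inhibitor and -100% = no enzyme wells; top concentration of the series not given in the record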
#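 After 15 min at room temperature with compound, 15 nM Sfp received 5 uM rhodamine-CoA plus 12.5 uM BHQ-2-ybbR (50 mM Hepes pH 7.6, 10 mM MgCl2). Rate came from the fluorescence difference over 30 min, ex 525/em 598 nm.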
# TRPML1 inh – inhibitors of human TRPML1 channel; hit rate 0.02% among 390,000; TRPML1-inducible cells, Ca2+ dye fluorescence, FDSS; stronger effect = lower value; inhibition of EC80 agonist-evoked calcium signal; activity change, negative = inhibition, % (no concentration beside the values); Q9GZU1; in the data active means activity change below about -50%; inconclusive means about -30% to -50%; inactive means above about -30%;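 note: stimulus is agonist 54-4 at its EC80 concentration; % is set by controls: 0 for no effect and ±100 for the full control effect; compound concentration not given in the record; the text of the record puts the active cut at -80%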
#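 Calcium fluorescence in TRPML1-DL cells induced overnight with Tet: a 110 s read after compound pin addition, then a 110 s antagonist read after challenge with 54-4 at 4 uM final (EC80).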
# gsp agonist – activates gsp, the McCune-Albright syndrome mutation. gsp mutant cells, cAMP HTRF, 30 min; control for the full effect not named in the record. Potency, µM (series often up to 76.9 µM), inactives show at the top dose activation (cAMP increase), actives largely listed as activators. hit rate 0.13% among 340,000; active = well fitted activation curve with a large enough effect; inconclusive = small, poorly fitted or top-dose-only effect, or another doubt; inactive = no such curve, though single readings can be large or run the other way; cell line not stated here;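 note: phosphodiesterase inhibitor Ro 20-1724 added with compounds to block cAMP breakdown; potency is the fitted concentration of half-maximal effect; nearly all actives have a fitted effect of over 60% in size; about a fifth of the inactives were tested at one dose only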
#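 Cells stably selected in G418 were plated at 2000/well, grown 16-24 hr, then given compounds in DMSO with the PDE inhibitor […] (300 uM solution added) for 30 min at 37C; cAMP was read by HTRF.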
# Starred values were filed as active, the others as inactive; ? = inconclusive; . = not tested or not shown; [ ] = another dose, or the depositor's remark.
SMILES,gsp antagonist,ClpP mod,TRPV1 potentiator,Menin MLL FP FL,Sfp PPTase inh,TRPML1 inh,gsp agonist
CO/N=C/NC(=O)c1c(OC)ccnc1Oc1cccc(C(F)(F)F)c1,2.9%,1.3%,-7.2,-0.9,11.3%,-5.4,-26.9%
NNC(=O)c1cc(C23CC4CC(CC(C4)C2)C3)nc2ccccc12,-4.0%,0.2%,0.8,1.2,-0.7%,-1.9,-0.8%
Cc1cccc(OCC(O)CN2CCN(CCN3C(=O)c4cccc5cccc(c45)C3=O)CC2)c1C (stereo not given),-18.7%,-9.5%,7.4,1.7,-12.7%,-1.1,-2.9%
Cc1ccccc1C(=O)NC1CCCCCCC1,9.7%,2.4%,-14.7,0.5,-7.6%,-13.7,-3.2%
CNC[C@@H]1Oc2c(NS(C)(=O)=O)cccc2C(=O)N([C@@H](C)CO)C[C@H]1C,7.7%,-9.9%,.,.,.,-5.6,?
CSCCC(NC(=O)/C(=C/c1ccc(F)cc1)NC(C)=O)C(=O)O (stereo not given),10.9%,.,-3.9,-3.8,2.6%,-0.9,-4.9%[15.4 µM]
Cc1c(-c2ccccc2)c(P(=O)(N2CCOCC2)N2CCOCC2)c2ccccn12,-4.7%,65.1%,28.0,0.0,-2.0%,-29.6,-6.9%
O=C(Nc1ccccc1SC(=O)c1ccccc1)c1ccccc1,.,-3.2%,.,.,.,-3.7,-0.4%
CC(C)NC(=O)c1cc2nc(-c3ccco3)cc(C(F)(F)F)n2n1,-2.5%,-28.7%,-0.2,1.7,4.3%,-4.5,27.3%
COc1cccc(NC(=O)CSc2nnc(NC(=O)C3CC3)s2)c1,-16.7%,.,?,0.9,11.1%,-3.6,11.2%[15.4 µM]
Cc1ccc(NC(=O)CCCNC(=O)c2ccc(Cl)cc2)nc1,11.9%,-1.0%,9.3,.,13.7%,-2.7,0.8%
c1ccc(-n2ncc(-c3nn[nH]n3)n2)cc1,7.2%,?,10.0,2.6,2.5%,-13.5,0.5%
Cc1nn(C)cc1C1Nc2ccccc2C(=O)N1O (stereo not given),22.0%,-5.7%,10.4,-2.2,-12.7%,-9.3,0.8%
CCOc1ccccc1N,0.6%,0.2%,6.7,.,.,-6.6,.
O=C(CSC1=NCCS1)Nc1ccc2ccccc2c1,4.1%,.,-14.3,-1.4,3.2%,8.4,13.0%[15.4 µM]
COc1ccc(/C=N/NC(=O)CC2N=C(Cc3ccccc3)NNC2=O)cc1OC (stereo not given),0.6%,.,-5.5,-0.5,9.8%,7.8,1.5%
CC(=O)Cn1ncc(N2CCOCC2)c(Br)c1=O,9.2%,-3.1%,-1.5,-2.0,4.9%,1.6,19.2%
C=CCNc1n[nH]c(=S)s1,.,1.8%,.,.,.,-8.0,-10.2%
CCS(=O)(=O)c1ccc(O)c(NC(=O)NC2CCCCC2)c1,-3.8%,.,5.3,0.5,8.5%,-11.7,-11.5%[15.4 µM]
COc1ccc(O[C@H]2C=C[C@@H](c3ccccc3)O[C@@H]2COC(=O)CCC(C)=NO[C@@H]2O[C@H](COC(C)=O)[C@@H](OC(C)=O)[C@H](OC(C)=O)[C@H]2OC(C)=O)cc1,.,.,-9.3,-0.2,-2.2%,.,.
O=C(O)CC(NC(=O)C1CCCCC1)c1cc([N+](=O)[O-])ccc1Cl (stereo not given),7.7%,-0.9%,4.7,-0.9,17.5%,13.5,1.6%
Cc1ccc(-n2c(Cc3cccn3C)nnc2SCC(=O)N2CCN(c3ccccc3)CC2)cc1,-6.7%,3.9%,-9.0,3.7,-6.2%,-1.8,-16.8%
COc1ccc(C(=O)N2CCC(C(=O)Nc3ccccc3C)CC2)cc1OC,-2.4%,.,6.5,-1.9,10.4%,-12.8,-28.8%
Cc1ccc(/C=N/NC(=O)c2cc3c(ccc4ccccc43)o2)cc1[N+](=O)[O-],-1.7%,0.7%,12.6,-0.3,3.4%,0.0,-42.7%[inhibitor]
O=C1CCC(C(=O)O)(c2ccccc2)C1 (stereo not given),.,.,-3.3,2.0,13.3%,.,.
COc1ccc(C(=O)Nc2cc(C(C)=O)c(C)oc2=O)cc1,-6.3%,.,5.8,1.9,?,-12.9,23.1%
Clc1ccc(-c2nc(/C=N/N3CCOCC3)c3ccccn23)cc1,-25.1%,1.3%,0.0,10.5,-13.9%,-14.0,-7.7%
COc1ccc(C(CNC(=O)c2cccc(S(=O)(=O)Nc3cccc(C)c3)c2)N2CCOCC2)cc1 (stereo not given),-18.6%,-1.2%,-11.4,.,.,2.9,14.9%
O=c1/c(=C\c2cccnc2)sc2nc3ccccc3n12,-6.9%,1.5%,0.9,7.8,7.7%,6.5,-17.3%
Clc1ccc(Cn2cnc3ccccc32)cc1,0.6%,?,19.3,-1.1,12.9%,31.9,-2.8%
Cc1ccc(/C=C/c2ccc(=O)n(Cc3ccccc3Cl)n2)cc1,-11.8%,28.2µM*,-11.2,-1.6,?,55.2,-25.8%
Cc1ccc(NC(=O)CN2C(=O)N/C(=C\c3cccn3-c3cccc(C(=O)O)c3)C2=O)cc1,-1.0%,.,9.5,10.6,39.8µM*,-5.8,-11.2%[15.4 µM]
CC(C)CC(=O)Nc1cccc(C(C)O)c1 (stereo not given),.,.,-3.5,4.0,28.6%,.,.
COc1ccccc1NC(=O)C(C)n1cnc2c(oc3nc4c(cc32)CCCC4)c1=O (stereo not given),0.0%,-1.8%,3.9,.,2.7%,25.8,12.3%
CCC(C)(C(=O)NC1CCCCC1)N(C)C(=O)c1ccc2c(c1)OCO2 (stereo not given),-2.4%,0.6%,18.2,3.3,16.2%,-6.3,-7.0%
O=C(NNC(=O)c1cccc(-n2cccc2)c1)c1ccccc1,2.2%,-1.8%,9.4,.,.,12.1,-0.2%

# Sfp PPTase inh: hit marks shown above.
Compound	Menin MLL FP FL	Sfp PPTase inh	TRPML1 inh	gsp agonist
Cc1ccc(NC(=O)CN2C(=O)N/C(=C\c3cccn3-c3cccc(C(=O)O)c3)C2=O)cc1	10.6	39.8µM*	-5.8	-11.2%[15.4 µM]

# Additional structures:
SMILES,gsp antagonist,ClpP mod,TRPV1 potentiator,Menin MLL FP FL,Sfp PPTase inh,TRPML1 inh,gsp agonist
COc1cc(NC(=O)CSc2nncn2C)c(C)cc1[N+](=O)[O-],-3.9%,.,7.9,-3.3,5.0%,-3.1,10.9%[15.4 µM]
CSc1ccc(C(=O)C2CCCN(C(=O)CN3CCOC3=O)C2)cc1 (stereo not given),-0.3%,2.7%,0.7,.,18.7%,6.8,4.6%
CCOC(=O)C1=C(Nc2ccc(OC)cc2)C(N)=NC1=N,.,0.0%,.,.,.,-6.3,8.2%
Cn1c(CNS(=O)(=O)c2ccc(F)cc2)n[nH]c1=S,7.7%,-1.5%,8.1,0.4,-20.5%,13.6,22.0%
O=C(Nc1ncc(Cc2ccccc2)s1)C1COc2ccccc2O1 (stereo not given),4.4%,-7.7%,-3.5,0.9,2.5%,-11.4,-8.9%
COc1ccc(OCC(=O)Nc2ccc3c(c2)nc(CN2CCCC2)n3C)cc1,6.6%,-2.0%,13.8,-0.6,-6.1%,2.5,-41.8%[inhibitor]
CC(=O)N1CCN(Cc2nc3cc(NC(=O)c4ccc(F)cc4)ccc3n2C)CC1,3.4%,.,3.3,-3.1,18.9%,-10.1,-2.3%[15.4 µM]
O=C(NC(=S)NCc1cccnc1)c1cc2ccccc2o1,-4.4%,.,-3.6,3.9,?,-7.4,21.8%
O=C(/C=C/c1ccc([N+](=O)[O-])cc1)OCC(=O)N1c2ccccc2Sc2ccccc21,7.6%,-2.6%,0.0,0.8,5.4%,-20.1,0.3%[15.4 µM]
COc1ccc(/C=C2\Sc3ccc(C(=O)N4CCCC4)cc3N(C)C2=O)cc1OC,0.2%,.,3.6,.,-23.4%,3.4,?
O=C(CN1CCSCC1)N/N=C/c1cccc(Cl)c1,-2.7%,-0.2%,9.7,1.0,-19.7%,3.4,-22.4%
COc1ccc2cc(C#CC3=CC(=O)C[C@H](c4ccc(F)cc4)C3)ccc2c1,.,-5.2%,.,.,.,5.5,-7.3%
Cn1ccnc1SCC(=O)Nc1ccc2ccccc2c1,7.6%,-0.6%,?,-2.3,-1.4%,-20.9,-8.1%
COc1ccc(NC(=O)Nc2ccc(CC(=O)O)cc2)cc1,9.1%,.,-9.2,-3.0,9.9%,23.7,13.5%
Cc1cc(OCCCn2ccnc2)cc(C)c1Cl,-4.3%,0.0%,6.5,-0.4,11.8%,-6.1,4.6%
COc1cc(C(=O)Nc2c(C(=O)O)[nH]c3ccc(Br)cc23)cc(OC)c1OC,-1.0%,1.8%,24.4,-1.2,6.3%,30.3,14.7%
COc1ccc(C(O)P(=O)(OC(C)C)OC(C)C)c(OC)c1 (stereo not given),6.8%,1.2%,-2.1,-0.3,11.4%,-6.7,3.1%[15.4 µM]
Clc1ccc(-c2ccc(/C=N/Nc3nncc(-c4ccccc4)n3)o2)cc1,-13.5%,-1.9%,-4.3,-1.0,-7.1%,7.7,-5.0%
COC(=O)c1c(NC(C)=O)sc2c1CCCCC2,10.3%,1.8%,-26.5,1.3,56.2µM*,2.4,16.1%
COC(=O)c1ccc2nc(-c3cccc(N)c3)cn2c1,4.8%,.,1.8,-0.7,-9.1%,-12.6,-39.1%[15.4 µM]
O=C(O)COCC(=O)N1CCCN(c2nccc(C(F)(F)F)n2)CC1,5.1%,-7.4%,?,0.2,9.4%,.,-17.6%
O=C(CCCCCN1C(=O)CCC1=O)Nc1ccc(Cl)c(C(F)(F)F)c1,?,-1.4%,-2.7,-0.3,3.6%,-8.1,10.9%
O=C(Nc1ccccc1Cl)C1C2CCCCC21 (stereo not given),1.3%,.,.,.,.,9.6,11.5%
COc1ccc(CNC(=O)CN(C(=O)CCC(=O)Nc2nccs2)c2cccc(C)c2)cc1,2.2%,.,-10.6,-9.8,-1.4%,1.2,36.8%[15.4 µM]
CC1=C(C(N)=O)C(c2cccnc2)n2nc(SCc3ccccc3Cl)nc2N1 (stereo not given),2.1%,-0.1%,24.4,-2.7,-16.6%,7.0,7.7%
Cc1cc(C)n2nc(C(=O)N/N=C/c3ccc(O)cc3)nc2n1,5.7%,.,7.8,-0.4,17.1%,4.8,-14.0%

# Compound activity as filed in PubChem BioAssay.

# Compounds were not picked by outcome; any-hit rate near 4.9%.
